T cruzi repl = blocks replication of Trypanosoma cruzi. T. cruzi beta-gal in NIH3T3, luminescence, 90 h. inhibition, % (concentration not given with the values). hit rate 1.4% among 300,000. AID 1885;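 active = mean inhibition across valid replicates above about 55%, limit read from the data; inconclusive = mean below that limit but half or more replicates reach it; inactive = mean below it, under half of replicates reach it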;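 also: signal also drops with host cell toxicity which is not excluded here; 0% = plate median of DMSO wells and 100% = zero luminescence signal; higher percent means less beta-gal luminescence so fewer parasites; stock transfer was 50 nL into about 50 µL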
FGF22 binding = shifts melting point of recombinant human FGF22; Q9HCT0; recombinant FGF22 thermal shift, SYPRO orange fluorescence; percent of sucrose octasulfate shift, DMSO zero; calls only at 9.99 µM; hit rate 1.5% among 340,000; AID 651658;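 active = melting point raised past a set limit in the mean and every replicate; inconclusive = no clear call; three in four hits are not shown here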
A1 inh = inhibitors of the anti-apoptotic protein A1, read as caspase activation | MEF A1-2A-BIM cells, Caspase-Glo 3/7 luminescence, 3 h; percent of clofoctol response, vehicle zero | caspase activation, % (concentration not given with the values) | AID 2462 | hit rate 0.066% among 330,000;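 active = over half of replicate activation scores above 10%, or exactly half above 10 with the replicate mean above 10; inconclusive = replicate mean below 10 yet half the replicates above 10; inactive = over half of replicates below 10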;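 also: wells of about 30 µL received 50 nL stock; many hits fall short of the cut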
Ecoli rRNA inh = inhibits bacterial ribosomal RNA function over humanized ribosomes. E. coli WT GFP vs humanized-ribosome RFP mutants, fluorescence, 24 h; active compounds read low; DMSO median 0, no signal -100. GFP signal change (wild-type ribosome), % (test concentration not listed). hit rate 1.6% among 350,000;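 active = significant combined selectivity score with lowered wild-type GFP, culture density cut under 30%, mutant RFP and density less affected; inactive = any of these conditions unmet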; also: one replicate is shown; some compounds called inactive have numbers as strong as hits
UCH37 DUB inh = human UCH37 deubiquitinating enzyme inhibition | Q9Y5K5 | purified proteasome/UCH37, Ub-AMC cleavage fluorescence | inhibition, % (no concentration beside the values) | hit rate 0.33% among 330,000 | AID 588478;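 active = mean of two replicates above 20%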;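 also: 0% = compound-free wells with enzyme and 100% = wells lacking proteasome; stock transfer was 100 nL into about 20 µL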
Target sequence (Q9Y5K5 whole entry, looked up): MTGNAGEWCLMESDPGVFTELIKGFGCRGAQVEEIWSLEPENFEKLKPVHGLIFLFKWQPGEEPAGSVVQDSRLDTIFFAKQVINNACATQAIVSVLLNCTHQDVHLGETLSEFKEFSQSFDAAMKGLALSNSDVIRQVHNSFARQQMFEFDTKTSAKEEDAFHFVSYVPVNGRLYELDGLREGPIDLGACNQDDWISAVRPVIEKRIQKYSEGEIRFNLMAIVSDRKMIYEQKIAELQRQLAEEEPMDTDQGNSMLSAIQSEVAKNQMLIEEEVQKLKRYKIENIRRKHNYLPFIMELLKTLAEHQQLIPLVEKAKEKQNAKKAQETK
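Material: Human UCH37 enzyme supplied as purified proteasome complex | Schedule: 30 min compound-proteasome preincubation then 25 min substrate reaction, room temperature | Detection: AMC fluorescence from Ub-AMC cleavage, excitation 355 nm, emission 460 nm | Benchmarks: Wells without proteasome as full block, compound-free enzyme plus substrate as uninhibited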
MLL AF4-AF9 inh = MLL-AF4/AF9 protein interaction inhibition; inhibition, % at 10 µM; AlphaScreen, biotin-AF4 peptide binding to FLAG-AF9; hit rate 0.47% among 350,000;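 active = every replicate reaching a set inhibition limit, whatever the replicate mean, cut at about 25% in these data; inconclusive = mean inhibition reaches that limit but some replicates miss it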;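 also: 0% = plate neutral control median and 100% = total signal loss; the record names both 10 and 1 µM as test concentration; the first replicate is given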
Target sequence (P42568 whole entry, looked up): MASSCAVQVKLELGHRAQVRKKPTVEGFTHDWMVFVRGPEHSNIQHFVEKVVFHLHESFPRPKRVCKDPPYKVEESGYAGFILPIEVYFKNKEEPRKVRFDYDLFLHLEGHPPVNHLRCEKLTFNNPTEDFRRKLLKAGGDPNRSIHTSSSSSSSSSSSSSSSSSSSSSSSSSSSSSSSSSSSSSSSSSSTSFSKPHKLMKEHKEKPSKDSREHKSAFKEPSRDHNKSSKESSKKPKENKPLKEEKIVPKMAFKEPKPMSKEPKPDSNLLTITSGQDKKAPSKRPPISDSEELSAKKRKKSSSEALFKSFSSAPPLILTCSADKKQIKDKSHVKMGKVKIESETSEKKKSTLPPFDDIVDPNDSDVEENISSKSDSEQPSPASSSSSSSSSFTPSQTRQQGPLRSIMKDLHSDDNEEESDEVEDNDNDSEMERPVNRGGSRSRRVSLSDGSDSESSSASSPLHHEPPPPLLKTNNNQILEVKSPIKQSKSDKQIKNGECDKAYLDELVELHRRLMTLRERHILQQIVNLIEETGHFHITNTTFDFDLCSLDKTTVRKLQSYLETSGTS
E coli growth = E. coli growth inhibition; OD600 absorbance (no concentration beside the values); Escherichia coli growth, OD600, 23 h; active compounds read low; hit rate 0.21% among 330,000; AID 1053175;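 active = OD600 absorbance below the run mean of sample wells minus 3.6 SD, in any replicate, cut at about 0.56 in these data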;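 also: stock transfer was 300 nL into about 60 µL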
Beta apoptosis = blocks beta cell apoptosis; hit rate 0.8% among 300,000; AID 435005; protection from apoptosis, % (concentration not given with the values); INS-1E cytokine-induced death, ATP luminescence, 48 h; percent of positive-control rescue, neutral wells zero;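 active = all replicates at 75% or more, or half of them and the mean; inconclusive = half reach 75% but not the mean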;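 also: 0% = cytokine-treated negative control wells and 100% = positive control rescue; higher means more ATP so stronger rescue from cytokine killing; wells of about 40 µL received 100 nL stock; the first replicate is given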
Ecoli rRNA inh OD600 = further read-out of Ecoli rRNA inh, marked with its call; OD600 change, %; measured here: OD600 growth;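 optical density of the mix in the first replicate; 0 = DMSO median and -100 = no signal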
Ecoli rRNA inh RFP = second read-out of Ecoli rRNA inh, no call of its own (marks repeat the call); RFP signal change, %; measured here: RFP humanized mutant strains;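 first replicate; 0 = DMSO median and -100 = no signal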
* = called active by the depositor; i = inactive; ? = inconclusive; · = no result given. A portion of the library; rates above refer to the full screens.

SMILES	T cruzi repl	FGF22 binding	A1 inh	Ecoli rRNA inh	Ecoli rRNA inh OD600	Ecoli rRNA inh RFP	UCH37 DUB inh	MLL AF4-AF9 inh	E coli growth	Beta apoptosis
CCC(=O)NC(Cc1ccccc1)c1ccc2c(c1)OCCCO2 (centres undefined)	-1	i	-0.2	4	-5	13	-0.6	4.8	0.69	-2
O=C(NCCCN1CCOCC1)c1ccc2c(c1)N(Cc1c(F)cccc1Cl)C(=O)c1ccccc1S2	-19	i	1.6	-37	-68	16	7.4	8.7	0.7	1
Cc1ccccc1NC(=O)c1ccc(Cl)c(NC(=O)c2ccncc2)c1	-22	·	0.1	·	·	·	5.9	·	0.73	·
CC[C@]12c3[nH]c4cc(-c5ccco5)ccc4c3CCN1C(=O)[C@@H](CC(=O)NCc1ccco1)C[C@@H]2C(=O)N1CCN(C(=O)c2ccco2)CC1	·	i	·	-3	4	8.4	-17	6.8	0.69	·
CC(C)CN1CCN(Cc2cccc3nccnc23)CC1CCO (centres undefined)	7	i	0.9	9	5	-2.7	-1.7	-2.0	0.68	-8
O=C(CN1CCSC1=O)N1CCN(S(=O)(=O)c2ccc(F)cc2)CC1	·	i	·	10	12	-2.2	0.7	-1.7	0.66	·
N#Cc1c(C(F)(F)F)cc(-c2cccs2)nc1SC(C(=O)O)c1ccccc1 (centres undefined)	39	i	-0.4	-40	-64	-18	2.6	-1.5	0.69	-3
COc1ccccc1NC(=S)NCc1ccc(S(N)(=O)=O)cc1	-4	i	0.3	8	6	2.5	-0.4	-3.2	0.68	-4
Cc1cc(C)cc(NC(=O)CSc2nnc(CN3CCOCC3)n2C)c1	-11	·	-0.8	·	·	·	4.9	·	0.74	0
Cc1cccc(N(C)c2cc(C)nc3nc(C)nn23)c1	-7	i	1.1	-3	5	-3.9	1.0	0.4	0.73	-4
O=S(=O)(NC1CCCCC1Nc1ccccc1)c1ccccc1 (centres undefined)	-6	i	0.0	6	11	1.7	-0.4	0.8	0.71	-6
Cn1cccc1Cc1nnc(SCC(=O)N2CCCCCC2)n1-c1ccc(F)cc1	0	i	-0.3	6	8	0.8	-1.7	1.5	0.78	-6
O=C(C=Cc1ccccn1)c1ccccc1	·	i	·	-62	-81	-21	-1.0	0.5	0.65	·
CCc1nc(Nc2ccncc2)c2oc3ccccc3c2n1	66*	·	-0.1	·	·	·	-28	·	0.62	6
O=C(NCCCNCc1ccccc1)c1ccncc1	-17	i	1.4	8	0	-9.6	4.2	3.1	0.69	-2
O=C1NC(=O)C(=Cc2ccccc2[N+](=O)[O-])S1	·	i	·	-12	-28	-1.5	86*	0.6	0.65	·
COCCN(C(=O)Nc1ccccc1)c1ccccc1C	-6	·	0.9	·	·	·	1.5	·	0.69	-4
COc1ccc(-c2oc3ccc(N4CCOCC4)cc3c2C#CCO)cc1	28	i	-2.3	-16	-14	6.2	·	4.6	·	·
CCc1ccc(NC(=O)C(=O)c2ccccc2NC(C)=O)cc1	·	i	0.5	·	·	·	1.7	0.3	0.67	-5
O=C(NNc1nc2c(F)cc(F)cc2s1)C1=COCCO1	0	i	-0.5	10	15	0.5	3.1	-5.8	0.7	3

A second format for part of the listing above:
mol,T cruzi repl,FGF22 binding,A1 inh,Ecoli rRNA inh,Ecoli rRNA inh OD600,Ecoli rRNA inh RFP,UCH37 DUB inh,MLL AF4-AF9 inh,E coli growth,Beta apoptosis
Cc1cc(C)cc(NC(=O)CSc2nnc(CN3CCOCC3)n2C)c1,-11,·,-0.8,·,·,·,4.9,·,0.74,0
Cc1cccc(N(C)c2cc(C)nc3nc(C)nn23)c1,-7,i,1.1,-3,5,-3.9,1.0,0.4,0.73,-4
O=S(=O)(NC1CCCCC1Nc1ccccc1)c1ccccc1 (centres undefined),-6,i,0.0,6,11,1.7,-0.4,0.8,0.71,-6

More results:
SMILES	T cruzi repl	FGF22 binding	A1 inh	Ecoli rRNA inh	Ecoli rRNA inh OD600	Ecoli rRNA inh RFP	UCH37 DUB inh	MLL AF4-AF9 inh	E coli growth	Beta apoptosis
COc1ccccc1C(=O)NC1CCN(C(=S)NCCc2ccccc2)CC1	-4	·	-2.0	-30	-28	-2.1	2.4	-2.2	0.63	-1
CC(=O)Nc1ccc(NC(=O)CSc2nccn2Cc2ccccc2)cc1	0	·	0.2	·	·	·	6.9	·	0.66	-3
Cc1cccn2c(=O)c3cc(C(N)=S)c(=N)n(CCCOC(C)C)c3nc12	51	·	-0.4	·	·	·	-19	·	0.66	13
CC(C)[C@@H](C(=O)N1CCN(C(=O)OC(C)(C)C)CC1)n1cc(CCO)nn1	2	i	-0.9	10	18	0.0	-0.6	?	·	-7
Cc1cc(C(=O)N/N=C/c2c(C)nn(-c3ccccc3)c2Cl)n[nH]1	-2	i	-1.3	4	7	-1.4	·	0.3	·	0
CC1(C)OC2CC3C4CC=C5CC(O)CCC5(C)C4CCC3(C)C2(C(=O)CO)O1 (centres undefined)	·	i	·	-6	-11	-1.0	-0.6	0.9	0.69	·
CCn1cc(C(=O)N2CCN(Cc3ccc4c(c3)OCO4)CC2)c2cc(OC)c(OC)cc2c1=O	-2	·	-0.2	·	·	·	0.6	·	0.66	-9
Cc1cc(C)c(C(=O)COC(=O)c2cc([N+](=O)[O-])ccc2NCCO)cc1C	26	·	-0.3	·	·	·	2.6	·	0.68	-1
CCN1CCN(C(=O)c2ccc(Cn3c(=O)[nH]c4cc(OC)c(OC)cc4c3=O)cc2)CC1	-8	·	0.3	·	·	·	-16	·	0.7	4
COc1ccccc1NC(=O)Nc1ccnn1Cc1cccs1	-5	·	-0.2	·	·	·	5.3	·	0.68	2
Cc1ccc(C2CC(c3ccccc3Cl)n3nc(N)nc3N2)cc1 (centres undefined)	15	i	-0.2	-9	-30	-6.8	-2.7	-0.9	0.73	-7
Cc1ccc(-n2c(-c3ccccc3)c[n+]3c2CCC3)cc1	48	i	-0.5	-8	-10	-13	0.3	-2.8	0.65	109*
O=C(c1ccco1)N(Cc1ccco1)Cc1cc2ccccc2[nH]c1=O	9	i	0.1	·	·	·	-9.8	2.3	0.66	1
CCN(CC(=O)Nc1ccc(NC(C)=O)cc1)C(=O)c1ccccc1CCc1ccccc1	1	i	-0.1	-9	0	8.3	2.5	0.1	0.69	-12
Cc1oc(-c2ccc(Cl)cc2)nc1CN1CCC(C(=O)N2CCc3ccccc3C2)CC1	13	·	-0.9	·	·	·	2.0	·	0.72	2
CCOc1ccc(CCNC(=O)c2cccs2)cc1OCC	11	i	-0.7	-3	-9	0.9	2.7	-11	0.68	-9
O=C(O)CCC(=O)NNc1nc(-c2ccccc2)c2cc(Cl)ccc2n1	12	i	1.0	5	2	-3.4	4.5	-18	0.66	-7
CC(C)c1ccc(NNC(=O)C2CCC2)cc1	23	i	1.0	8	8	-0.5	2.7	-0.8	0.66	·
O=C(Cc1ccc([N+](=O)[O-])cc1)OCc1ccc([N+](=O)[O-])cc1	-8	i	-0.9	2	4	-4.0	1.2	1.6	0.61	-6
O=C(COC(=O)c1ccc(Cl)cc1O)NCCN1C(=O)CSC1=O	-4	i	-0.3	3	5	-1.0	-2.2	-7.0	0.68	-1
CCOc1ccc2nc(NS(=O)(=O)Cc3ccccc3)sc2c1	41	·	-0.8	·	·	·	2.1	·	0.67	26
COc1ccc(OC)c(N2C(=O)CC(NNC(=O)c3ccc4c(c3)OCO4)C2=O)c1 (centres undefined)	·	i	1.1	2	19	1.6	1.7	-0.5	0.66	2
CN1CCN(C(=O)CN(C)S(=O)(=O)c2cc(Cl)ccc2Cl)CC1	1	i	-0.2	5	8	0.0	0.6	-7.9	0.67	-3
CN1CCCC(CC2c3ccccc3Sc3ccccc32)C1 (centres undefined)	·	i	2.0	·	·	·	3.7	7.0	0.65	·
Cc1ccc(-c2cc(C(=O)Nc3ccncc3)c3ccccc3n2)cc1	53	i	-0.5	1	4	2.1	-5.1	-0.5	0.71	15
Cc1cc(C)cc(NC(=O)Cn2c(=O)oc3cc(S(=O)(=O)N4CC(C)CC(C)C4)ccc32)c1 (centres undefined)	-8	i	0.0	5	1	2.7	1.8	-13	0.73	-16
Cc1c(C(=O)O)oc2c3c(ccc12)OCCO3	-3	·	-0.3	·	·	·	-1.6	·	0.71	-4
COc1ccc(OC)c(S(=O)(=O)N2CCCC(C(=O)N3CCOCC3)C2)c1 (centres undefined)	-3	i	0.2	9	3	-2.9	-0.9	0.2	0.66	-5
CCCCn1c(N)c(N(CCC(C)C)C(=O)C2CC(=O)N(c3ccc4c(c3)OCCO4)C2)c(=O)[nH]c1=O (centres undefined)	-9	i	0.3	-4	6	1.0	·	1.7	·	-7
COC(=O)C(CC(C)C)NC(=O)c1ccc([N+](=O)[O-])c(C)c1 (centres undefined)	-5	·	0.7	·	·	·	-1.4	·	0.72	-1

Ordered by the number under Ecoli rRNA inh OD600 (low to high): some entries from above.
SMILES,FGF22 binding,Ecoli rRNA inh,Ecoli rRNA inh OD600,Ecoli rRNA inh RFP,UCH37 DUB inh,MLL AF4-AF9 inh
Cc1cc(C)cc(NC(=O)Cn2c(=O)oc3cc(S(=O)(=O)N4CC(C)CC(C)C4)ccc32)c1 (centres undefined),i,5,1,2.7,1.8,-13
COc1ccc(OC)c(S(=O)(=O)N2CCCC(C(=O)N3CCOCC3)C2)c1 (centres undefined),i,9,3,-2.9,-0.9,0.2
Cc1ccc(-c2cc(C(=O)Nc3ccncc3)c3ccccc3n2)cc1,i,1,4,2.1,-5.1,-0.5
CCCCn1c(N)c(N(CCC(C)C)C(=O)C2CC(=O)N(c3ccc4c(c3)OCCO4)C2)c(=O)[nH]c1=O (centres undefined),i,-4,6,1.0,·,1.7
CN1CCN(C(=O)CN(C)S(=O)(=O)c2cc(Cl)ccc2Cl)CC1,i,5,8,0.0,0.6,-7.9
COc1ccc(OC)c(N2C(=O)CC(NNC(=O)c3ccc4c(c3)OCO4)C2=O)c1 (centres undefined),i,2,19,1.6,1.7,-0.5
